Source: PubChem BioAssay (National Center for Advancing Translational Sciences (NCATS))
miR-21 FLuc – raises the signal of a miR-21 reporter; AID 2288; HeLa miR-21 FLuc reporter, luciferase, 48 h; Potency, µM (titrated, usually from 38.3 µM), for inactives: top-dose reporter change, positive = more light; 340,000 tested, under 10 active; active = well fitted rising curve with a large enough effect; inconclusive = small, poorly fitted or top-dose-only effect; inactive = no such curve, though single readings can be large or run the other way;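 note: % of control where 0% means no effect; miR-21 action dims this reporter so a rising signal means less miR-21 action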
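HeLa cells stably expressing CMV-driven firefly luciferase with a downstream miR-21 binding sequence, endogenously expressing miR-21, were treated with titrations (up to about 40uM final) for 48 hours at 37 degree Celsius. Luciferase luminescence was read after lysis.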
Active calls of the source: *; ? = inconclusive.

miR-21 FLuc	Structure
0%	COCCNC(=O)Cn1c(-c2cccs2)cc2cc(Cl)ccc21
-2%	COc1ccc(NC(=O)NCCc2c(C)nn(C)c2C)c(OC)c1
-1%	COc1cc(C(=O)NCC(c2cccs2)S(=O)(=O)c2ccc(F)cc2)cc(OC)c1OC (stereo not drawn)
-2%	CCOc1ccccc1NC(=O)c1c(NCc2cccs2)sc2c1CCC(C)C2 (stereo not drawn)
-9%	Cc1ccc(-c2cc(C(=O)NCc3ccccc3Cl)c3ccccc3n2)cc1C
1%	CCCN(CCC)C(=O)Cn1c(SCc2cccc(C(F)(F)F)c2)nc2cccnc21
-27%	CCCc1nnc(N2C(=O)c3oc4ccc(F)cc4c(=O)c3C2c2ccc(C(=O)OC)cc2)s1 (stereo not drawn)
-2%	Cc1ccc(-n2nc(C)c(C(=O)NCCCN3CCN(c4ccccc4F)CC3)c2-n2cccc2)cc1
-12%	COc1cccc(NC(=O)Cn2nc3c4ccccc4n(Cc4cccc(F)c4)cc-3c2=O)c1
-2%	CCc1ccccc1NC(=O)N1CCC(CN2CCc3ccccc3C2)CC1
5%	Cc1ccc(Cl)cc1N1CCN(C(=O)CCS(=O)(=O)c2ccc3c(c2)oc(=O)n3C)CC1
-1%	COc1cccc(-c2nnc(SCC(=O)NC3CCCCC3)o2)c1
-4%	Cc1cccc(CCNC(=O)CCc2c(C)nc3c4c(C)cc(C)nc4nn3c2C)c1
-8%	Cc1ccccc1CCNC(=O)c1ccc2c(c1)c(C)c(C)n2Cc1ccccc1
-1%	CCn1c(=O)cc(SCC(=O)NCCc2ccc(Cl)cc2)c2ccccc21

Of the compounds above, these contain a halogen:
miR-21 FLuc	Structure
0%	COCCNC(=O)Cn1c(-c2cccs2)cc2cc(Cl)ccc21
-1%	COc1cc(C(=O)NCC(c2cccs2)S(=O)(=O)c2ccc(F)cc2)cc(OC)c1OC (stereo not drawn)
-9%	Cc1ccc(-c2cc(C(=O)NCc3ccccc3Cl)c3ccccc3n2)cc1C
1%	CCCN(CCC)C(=O)Cn1c(SCc2cccc(C(F)(F)F)c2)nc2cccnc21
-27%	CCCc1nnc(N2C(=O)c3oc4ccc(F)cc4c(=O)c3C2c2ccc(C(=O)OC)cc2)s1 (stereo not drawn)
-2%	Cc1ccc(-n2nc(C)c(C(=O)NCCCN3CCN(c4ccccc4F)CC3)c2-n2cccc2)cc1
-12%	COc1cccc(NC(=O)Cn2nc3c4ccccc4n(Cc4cccc(F)c4)cc-3c2=O)c1
5%	Cc1ccc(Cl)cc1N1CCN(C(=O)CCS(=O)(=O)c2ccc3c(c2)oc(=O)n3C)CC1
-1%	CCn1c(=O)cc(SCC(=O)NCCc2ccc(Cl)cc2)c2ccccc21

(more compounds)
miR-21 FLuc	Structure
0%	CCOCCc1nn2c(=O)cc(COC(=O)c3ccco3)nc2s1
-8%	CCc1ccccc1Nc1ncnc2c1cnn2-c1ccc(C)cc1C
12%	CC(C(=O)Nc1ccc(F)c(Cl)c1)N1Cc2ccccc2C1=O (stereo not drawn)
16%	Cc1ccc(C)c(CN2C(=O)c3ccccc3S(=O)c3ccc(C(=O)N4CCN(c5cccc(Cl)c5)CC4)cc32)c1 (stereo not drawn)
-14%	COc1ccc(NC(=O)Cn2cc(S(=O)(=O)N3CCN(c4ccccc4F)CC3)c3ccccc3c2=O)cc1Cl
-5%	COc1ccc(NC(=O)Cn2c(=O)n(CCCC(=O)NCc3ccccc3OC)c(=O)c3ccccc32)cc1Cl
0%	CCOc1ccc(CC(=O)NCCS(=O)(=O)N2CCN(c3ccc(OC)cc3)CC2)cc1
23%	Cc1ccc(-c2c(CN3CCN(c4cccc(C)c4C)CC3)csc2C)cc1
0%	COc1cc(NC(=O)N2CCC(CN3CCCCCC3)CC2)cc(OC)c1OC
-17%	Cc1ccccc1-c1nc(C(N)=O)c2c(n1)n(-c1ccc3c(c1)OCO3)c(=O)n2C
-2%	COCCCNC(=O)CC(c1cc(OC)c(OC)c(OC)c1)N1Cc2ccccc2C1=O (stereo not drawn)
-3%	Cc1ccc(-c2c(C(=O)N3CCN(c4cc(Cl)ccc4C)CC3)oc(=O)c3ccccc23)cc1
6%	CCOc1ccc(C(=O)Nc2ccc3nc(SCC(=O)N4CCCC4)sc3c2)cc1
1%	O=C(CCn1cnc2onc(-c3ccc(F)cc3)c2c1=O)N1CCN(c2ccccc2)CC1
-2%	CCC1CN(S(=O)(=O)c2cc(-c3cc(C)no3)ccc2C)c2cc(C)ccc2O1 (stereo not drawn)

More entries:
miR-21 FLuc	Structure
4%	COc1ccc(NC(=O)C2CCCN(C(=O)c3cnn(-c4ccc(F)cc4)c3-n3cccc3)C2)cc1 (stereo not drawn)
-1%	CC(C)(C)c1ccc(C(=O)NCCc2csc(-c3ccc(Cl)cc3)n2)cc1
1%	Cc1cccc(N2CCN(C(=O)c3ccc4c(Cl)c5c(nc4c3)CCCC5)CC2)c1C
9%	COc1ccc(NC(=O)c2ccco2)cc1NC(=O)COc1ccc(C)c(C)c1
10%	CCc1ccc(NC(=O)CSc2nc3c([nH]c4ccccc43)c(=O)n2-c2cccc(OC)c2)cc1
-5%	Cc1c(Cl)cccc1NC(=O)Cn1c(=O)n(Cc2ccco2)c(=O)c2sc3ccccc3c21
-4%	Cc1ccccc1Cn1c(=O)n(CCc2ccccc2)c(=O)c2ccccc21
?	CCOC(=O)c1ccc(NC(=O)c2csc3c2CCCC3)cc1
0%	CCc1cccc(C)c1Nc1c(-c2ccsc2)nc2ncccn12
27%	CCC1CN(C(=O)N2CCC(C(=O)NCCc3ccccc3Cl)CC2)c2cc(C)ccc2O1 (stereo not drawn)
-5%	CCCSc1nc2sc3c(c2c(=O)n1Cc1ccccc1)CC(C)(CC)OC3 (stereo not drawn)
-35%	O=C(NCc1ccc(F)cc1)c1ccc2c(c1)nc1n2CCCCC1
0%	O=C(CC1N=C2c3ccccc3N=C(SCc3ccccc3Cl)N2C1=O)NCCc1ccccc1 (stereo not drawn)
0%	Cc1ccc(C)c(CN2C(=O)CSc3ccc(C(=O)NCc4ccc(F)cc4)cc32)c1
-12%	COc1ccc(C2C(C(=O)Nc3ccccc3)=C(C)Nc3nc(-c4ccccc4Cl)nn32)cc1OC (stereo not drawn)

Further structures follow:
miR-21 FLuc	Structure
-14%	CCCOc1cccc(C(=O)Nc2ccc(-c3nc4ccccc4s3)c(Cl)c2)c1
-9%	COC(=O)c1cc2sc(C)cc2n1Cc1ccc(F)cc1Cl
24%	Cc1cc(NS(=O)(=O)c2ccc3nc(-c4ccccc4)[nH]c3c2)ccc1Br
0%	CCOc1ccc(C(=O)Nc2cc(NC(=O)c3ccco3)ccc2OC)cc1Br
-25%	COc1ccccc1NC(=O)Cn1c(=O)n(CCc2ccccc2)c(=O)c2sc3ccccc3c21
1%	CCC(Sc1nc2ccccc2c2nc(CCc3c(C)n[nH]c3C)nn12)C(=O)Nc1ccccc1F (stereo not drawn)
-4%	CCS(=O)(=O)CCSc1nc(-c2ccc(Br)cc2)cc(-c2ccccc2)c1C#N
-12%	CC(C)Sc1ncc(Cl)c(C(=O)Nc2ccc(S(=O)(=O)Nc3ncccn3)cc2)n1
-11%	COc1cc(NC(=O)Cn2c(=O)n(CC3CCC(C(=O)NCCc4ccccc4)CC3)c(=O)c3ccccc32)cc(OC)c1 (stereo not drawn)
12%	CCOC(=O)c1cc(-c2ccc(F)cc2)n(CCC(=O)Nc2ccccc2OC)c1C
?	CC(C(=O)NCc1ccc(Cl)cc1)n1ccc2cc(S(=O)(=O)N3CCCCCC3)ccc21 (stereo not drawn)
6%	Cc1ccc(CNC(=O)c2nn(-c3ccc(Cl)cc3)nc2CO)cc1
-31%	Cc1ccc(C)c(N2CCN(C(=O)c3ccc(NC(=O)c4nsc5ccccc45)cc3)CC2)c1
-15%	CN1C(=O)C2(c3ccccc31)N(c1cccc(F)c1)C(=O)CS2(=O)=O (stereo not drawn)
-16%	CCOc1ccc(C2CC(=O)Nc3cc4c(cc32)OCO4)cc1OC (stereo not drawn)

The last 2 compounds of the section above open the next one:
miR-21 FLuc	Structure
-15%	CN1C(=O)C2(c3ccccc31)N(c1cccc(F)c1)C(=O)CS2(=O)=O (stereo not drawn)
-16%	CCOc1ccc(C2CC(=O)Nc3cc4c(cc32)OCO4)cc1OC (stereo not drawn)
-25%	Cc1cccc(C)c1NC(=O)Cn1nnc(C(=O)NCc2ccc(F)cc2)c1N
-22%	COc1cccc(NC(=O)Nc2cc(-c3cn4cccnc4n3)ccc2OC)c1
-9%	COc1ccc(NC(=O)Cn2nnc(-c3nc(-c4ccncc4)no3)c2N)cc1OC
-14%	Cc1ccc(S(=O)(=O)n2nc(-c3ccccc3)nc2NCc2ccccc2Cl)cc1
1%	CN(Cc1ccccc1)C(=O)c1c[nH]c2ccc(S(=O)(=O)Nc3ccccc3F)cc2c1=O
0%	COc1cccc(-c2nnc3n(CCc4ccccc4)c(=O)c4ccccc4n23)c1O
-3%	O=C(COc1ccc(Cl)cc1)Nc1nnc2n1CCS2
-2%	COc1ccc(C2=CC(c3ccccc3F)n3ncc(C(=O)Nc4ccc(C)cc4)c3N2)cc1 (stereo not drawn)
-9%	Cc1ccc(CNC(=O)Cn2cc(S(=O)(=O)Cc3ccccc3F)c3ccccc32)cc1
-1%	Cc1cccc(N2CCN(C(=O)c3cc4ccc5cccnc5c4[nH]3)CC2)c1C
-7%	O=C1CS(=O)(=O)C2(C(=O)N(Cc3ccccc3Cl)c3ccccc32)N1c1ccc(F)cc1 (stereo not drawn)
4%	COc1ccc(-c2nn3c(-c4ccccc4)nnc3c3ccccc23)cc1
-2%	COc1cccc(CNC(=O)Cn2c(=O)cc(C(F)(F)F)c3c(C)nn(C)c32)c1OC
-2%	Cc1ccc(NC(=O)Cn2c(=O)n(CCCCC(=O)NCCc3ccccc3)c(=O)c3ccccc32)c(C)c1
1%	COc1cccc(-n2c(=O)c3c4c(sc3n(Cc3ccc(C)cc3)c2=O)CCCC4)c1

Next part.
miR-21 FLuc	Structure
10%	Cc1cc(C)c2c(CC(=O)N(Cc3ccc(N(C)C)cc3)Cc3ccco3)coc2c1
-8%	CN(C(=O)NCc1noc2ccccc12)c1cccc(Cl)c1
19%	COc1cccc(CNC(=O)C2CCN(Cc3cc4ccccc4n3Cc3ccc(C)cc3)CC2)c1
0%	Cc1c(C(=O)OC2CCCCCC2)[nH]c2c1C(=O)CC(c1ccc(Cl)cc1)C2 (stereo not drawn)
-37%	O=C(Cn1cc(SCc2ccccc2)c2ccccc21)N1CCCCC1
14%	COC(=O)c1ccc(OCC2c3cc(OC)c(OC)cc3CCN2C(=O)c2ccc(F)cc2)cc1 (stereo not drawn)
2%	Cc1cc(Br)ccc1NC(=O)C1CCCN(S(=O)(=O)c2cccc3nonc23)C1 (stereo not drawn)
-10%	COc1ccc(-c2cnc(C)o2)cc1S(=O)(=O)Nc1ccc(F)cc1F
1%	COc1ccc(N2CCN(C(=O)Cn3nc(Cc4cccnc4)c4ccccc4c3=O)CC2)cc1
-9%	CCCCOC(=O)c1ccc(NC(=O)c2cc(=O)c3ccccc3o2)cc1
3%	Cc1ccc(Cl)cc1NC(=O)Cn1ncc2c(C)n(Cc3ccccc3F)c(C)c2c1=O
-5%	CC1=C(C(=O)Nc2cc(C)ccc2C)C2(CCCCCC2)OC1=O
17%	COc1ccc(CN2C(=O)C(NC(=O)c3ccccc3C)(C(F)(F)F)N=C2c2ccccc2)cc1 (stereo not drawn)
-29%	CC1CCCCN1C(=O)CSc1n[nH]c(-c2ccccc2Cl)n1 (stereo not drawn)
-29%	COc1cc(C(=O)n2nc(-c3ccco3)nc2NCc2ccc(Cl)cc2)cc(OC)c1OC

An excerpt from the list above, as a working copy:
miR-21 FLuc	Structure
1%	CCCN(CCC)C(=O)Cn1c(SCc2cccc(C(F)(F)F)c2)nc2cccnc21
-27%	CCCc1nnc(N2C(=O)c3oc4ccc(F)cc4c(=O)c3C2c2ccc(C(=O)OC)cc2)s1 (stereo not drawn)
-2%	Cc1ccc(-n2nc(C)c(C(=O)NCCCN3CCN(c4ccccc4F)CC3)c2-n2cccc2)cc1

Following part:
miR-21 FLuc	Structure
-3%	COc1ccccc1N1CCN(C2C(=O)c3ccccc3N2C(C)=O)CC1 (stereo not drawn)
-3%	CC(C)(C)OC(=O)N1CCC(c2c(C(=O)N3CCN(c4ccccn4)CC3)cnn2-c2cccc(F)c2)CC1
-7%	CC(C)C(=O)NCC(c1ccc2c(c1)OCO2)N1CCN(c2ccccc2)CC1 (stereo not drawn)
4%	Cc1ccc(-n2nc(C)c3c(C(=O)O)cc(C)nc32)cc1
5%	Cc1cccc(NC(=O)CN(C)S(=O)(=O)c2ccc3c(c2)c(=O)n(C)c(=O)n3C)c1
-1%	COc1cccc2c1Oc1nc(-c3ccccc3)nc(SCC(=O)Nc3ccccc3)c1C2
0%	COc1cccc(NC(=O)C2CCN(c3cc(C)nc4c(-c5ccc(Cl)cc5)c(C)nn34)CC2)c1
2%	Cc1ccc(-n2nc(C)c3c(C)cc(=O)n(CC(=O)Nc4cc(Cl)ccc4C)c32)cc1
4%	Cc1ccc(-c2nn3c(=O)cc(CN4CCN(C(=O)/C=C/c5ccccc5)CC4)nc3s2)cc1
-7%	Cc1ccc(C)c(NC(=O)C(CC(C)C)N2Cc3ccccc3C2=O)c1 (stereo not drawn)
1%	CCCCOc1ccc(S(=O)(=O)NCc2csc(-c3ccc(OC)cc3)n2)cc1
9%	Cc1cccc(NC(=O)C2CCC(CNS(=O)(=O)c3ccc4c(c3)CCCC(=O)N4)CC2)c1C (stereo not drawn)
-3%	CCCN1Cc2cccc(C(=O)Nc3cccc(C(=O)OCC)c3)c2C1=O
-1%	CCOC(=O)c1nn2c(C(F)(F)F)cc(-c3ccc(C)cc3)nc2c1Cl
2%	Cc1ccccc1CNC(=O)C1CCN(c2nnc(-n3c(C)ccc3C)s2)CC1

Going on with the list.
miR-21 FLuc	Structure
-2%	COc1ccccc1NC(=O)NCCCN1CCN(c2ccc(F)cc2)CC1
-7%	COc1ccc(-n2cc(C(=O)NC(C)c3ccccc3)c3ccccc3c2=O)cc1 (stereo not drawn)
-10%	CCOC(=O)c1c(C)n(-c2ccccc2)c2ccc(OC(=O)c3cc(OC)cc(OC)c3)cc12
14%	Cc1ccc2c(=O)cc(CSc3ncn[nH]3)[nH]c2c1C

Not all compounds are listed; count on the stated rates, not on these rows.
